RN4220 kill – S. aureus RN4220 growth inhibition. OD600, 16 h. inhibition, % (test concentration not listed). 0.33% of 330,000 active;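 active means z-score of -3 or lower and OD600 up to 0.18 on both plates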;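 further: plate controls were untreated cells for no effect and reference antibiotic for full effect; stock transfer was 100 nL into about 80 µL; one replicate is shown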
Mtb hypoxia inh – Mtb hypoxia fluorescent reporter inhibition. fluorescence inhibition, % (concentration not given with the values). M. tuberculosis hypoxia-regulated fluorescent reporter, fluorescence. 0.1% of 300,000 active;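 active means 35 to 45% if threefold the growth effect, above 45% if 1.5-fold the growth effect; inactive means the rest, general growth blockers included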;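 further: wells of about 50 µL received 100 nL stock; 0% = vehicle wells and 100% = reference inhibitor wells; whole bacteria with a GFP reporter of the hypoxia response; strong numbers were not always called active; many hits fall short of the cut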
ugtP null kill – kills S. aureus RN4220 lacking UgtP; S. aureus RN4220 ugtP deletion, OD600 growth, 16 h; some inactives read as strong as hits; growth inhibition, % (test concentration not listed); 0.54% of 330,000 active; AID 1259309;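 active means z-score under -3 and OD600 up to 0.15 on both plates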;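 further: plate controls were untreated wells for no effect and antibiotic for full effect; wells of about 80 µL received 100 nL stock; the first replicate is given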
Autofluor counter – counter-screen for toxin protease inhibitors: compound fluorescence | 3.1% of 360,000 active | compound autofluorescence counterscreen, microsphere flow cytometry; hits give high values | AID 624483 | fluorescence intensity (no concentration beside the values);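 active means at least 3 SD above the mean of all compounds, about 16000 in these data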;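 further: 100 nL of 1 mM stock went into each well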
PrP UTR inh – inhibition of PrP 5' UTR reporter expression | cell-based PrP 5' UTR mRNA reporter, plate reader | inhibition, % (no concentration beside the values) | 0.35% of 340,000 active;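 active means every replicate at 50% or more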;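 further: 0 = median of the neutral control wells; tested in H4 reporter cells; numbers are from one replicate; inactives centre near -14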
BJeLR viability – BJeLR cell viability loss. 0.17% of 300,000 active. BJeLR (HRASV12) viability, CellTiter-Glo ATP luminescence, 48 h; reference of the scale not given here. inhibition, % (test concentration not listed);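 active means replicate mean above 50%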;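 further: 50 nL library stock added to about 25 µL; numbers are from one replicate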
Mtb hypoxia inh growth – also measured in Mtb hypoxia inh; calls as there; growth inhibition, %; measured here: M. tuberculosis growth (absorbance);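 0% = vehicle and 100% = reference antibiotic; read after six days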
Starred values were filed as active, the others as inactive; . = not tested or not shown.

Screens in order: BJeLR viability	ugtP null kill	Mtb hypoxia inh growth	PrP UTR inh	Autofluor counter	Mtb hypoxia inh	RN4220 kill
1) Nc1c(C(=O)CSc2nc(-c3ccccc3)cs2)c(=O)[nH]c(=O)n1C1CC1
  .	5	3	-13	3067	6	5.3
2) Cc1ccc(NC(=S)N(C)Cc2cn(C)c3ccccc23)cc1
  -8	0	8	-16	10168	6	4.3
3) O=C1CC(C(=O)N2CCN(c3ccccc3Cl)CC2)CN1Cc1ccccc1 (stereo unspecified)
  .	6	-3	-7	3744	2	3.5
4) O=C(CC(c1ccccc1)c1cc(Br)ccc1O)NCCCN1CCOCC1 (stereo unspecified)
  -4	3	-5	-18	4460	0	3.0
5) CC1CN(C(C)CO)C(=O)c2cc(NC(=O)CCC(F)(F)F)ccc2OC1CN(C)S(C)(=O)=O (stereo unspecified)
  .	-2	6	.	.	-3	2.5
6) Oc1ccccc1C=NNC(=S)NCCc1ccccc1
  .	21	5	.	.	4	3.4
7) CCC(=NNC(=O)COc1ccc(Br)cc1)c1ccc(OC)c(OC)c1
  .	1	4	.	.	9	-3.7
8) COc1ccc(NS(=O)(=O)c2cc(NC(=O)[C@@H](NC(N)=O)C(C)C)ccc2C)cc1
  -13	6	1	-16	3671	-3	4.4
9) O=C(NCc1cccnc1)C1CC2c3ccccc3C1c1ccccc12 (stereo unspecified)
  13	9	.	-6	3716	.	15
10) O=C(O)c1cccc(-c2ccc(C=Nn3cnc4sc5c(c4c3=O)CCCC5)o2)c1
  .	18	15	.	.	-3	16
11) Fc1ccc(-c2ccnc3nc(-n4cccc4)nn23)cc1
  0	-5	2	-22	9565	3	7.1
12) CC(C)(C)C(=O)Nc1ccc(C(=O)NN=Cc2ccccc2OC(=O)c2ccc(Cl)cc2)cc1
  .	-1	4	.	.	10	0.9
13) CN(C)S(=O)(=O)c1cccc(NC(=S)NN=CC(=O)c2ccccc2)c1
  .	6	2	.	.	7	3.1
14) O=C(OCc1cccc([N+](=O)[O-])c1)c1cccnc1
  -7	4	12	-5	2742	-4	4.1
15) c1ccc2c(c1)NC1(CCCCC1)n1c-2nc2ccccc21
  1	4	-4	-52	7594	5	5.8
16) CCC1(C)CC(CCN(Cc2ccco2)C(C)=O)(c2ccccc2)CCO1 (stereo unspecified)
  -1	9	11	-9	2595	18	4.8
17) Fc1cccc(CSc2nc3ncc(Cl)cc3[nH]2)c1
  13	1	-2	.	3983	-2	6.2
18) CCN(CC)S(=O)(=O)c1cc(NC(=O)Cn2ncc(Cl)c(Cl)c2=O)ccc1C
  -10	7	6	-49	4049	5	11
19) CC(C)(C)N(NC(=O)Nc1ccc(Cl)c(Cl)c1)C(=O)c1ccccc1
  8	-15	-3	-12	2601	6	2.1
20) Cc1nc(N)nc(Cl)c1CCC1OCCO1
  .	1	0	-10	2776	4	1.4

Along the list, quoted from above:
Compounds 8–19 in BJeLR viability: -13, 13, ., 0, ., ., -7, 1, -1, 13, -10, 8
Compounds 8–19 in Mtb hypoxia inh: -3, ., -3, 3, 10, 7, -4, 5, 18, -2, 5, 6

Remaining list, next part.
Screens in order: BJeLR viability	ugtP null kill	Mtb hypoxia inh growth	PrP UTR inh	Autofluor counter	Mtb hypoxia inh	RN4220 kill
21) COc1ccc(S(=O)(=O)N(C)C)cc1NS(=O)(=O)c1ccc(F)c(F)c1F
  -2	1	6	-2	2366	10	7.7
22) CCN(CC)S(=O)(=O)c1ccc(C(=O)NCCc2cc3c(OC)ccc(OC)c3[nH]c2=O)cc1
  -2	4	.	-11	2343	.	-0.8
23) CC(=O)c1ccc(N2C(=O)CC(N3CCN(S(=O)(=O)c4ccc(C)c(C)c4)CC3)C2=O)cc1 (stereo unspecified)
  .	6	3	-20	3923	3	1.5
24) O=C(C[n+]1cccc(CNC(=O)c2ccc(OC(F)F)cc2)c1)Nc1cccc(C(F)(F)F)c1
  8	-21	.	1	2541	.	-2.8
25) COc1ccc(C(=O)n2cnc3ccccc32)cc1
  4	11	12	-11	3741	18	3.8
26) O=C(COC(=O)Cc1ccc(Cl)cc1Cl)Nc1ccccc1OC(F)F
  2	8	-1	-16	3354	2	9.6
27) Cc1cccc2sc(NC(=O)C3CCN(C(=O)c4ccco4)CC3)nc12
  -1	-1	0	-10	2963	-6	-1.4
28) COC(=O)c1ccc(/C=C(/NC(=O)c2ccccc2)C(=O)N2CCOCC2)cc1
  -10	11	9	-12	4900	13	3.7
29) COC1=C(Nc2ccc(C)cc2)C(=O)c2ccccc2C1=O
  -9	24	0	-40	2383	4	32
30) CCOc1ccc(N2C(=O)CC(NC3CCN(C(=O)c4cccs4)CC3)C2=O)cc1 (stereo unspecified)
  1	8	0	-6	6132	1	-0.7
31) COc1ccccc1NC(=O)C1=C(C)NC(SCC(=O)c2ccccc2)=C(C#N)C1c1ccco1 (stereo unspecified)
  2	.	.	42	3834	.	.
32) CCOC(=O)C(C(=O)Nc1cccc(C)c1)C1CCCCC1 (stereo unspecified)
  0	5	3	-19	10728	9	5.3
33) O=C(Cn1nc(Cc2cccnc2)c2ccccc2c1=O)Nc1cc(F)ccc1F
  -10	2	0	-14	4924	-15	1.7
34) Cc1cc(=O)n(C)c(=O)n1CCCNc1ccccc1
  -3	-2	4	6	6118	6	2.4
35) Cc1ccc(Nc2nc(=O)[nH]nc2C)cc1
  3	6	-2	.	10028	5	2.4
36) Cc1ccc(CN2CC(C(=O)NCCC3=CCCCC3)CC2=O)cc1 (stereo unspecified)
  .	4	3	-12	2867	8	3.5
37) CCCOc1ccc(N/C=C/C(=O)C(C)(C)C)cc1
  -6	.	.	-24	1970	.	.
38) CCN(CC)S(=O)(=O)c1ccc(N2C(=O)Nc3ccccc3N2O)cc1
  -4	5	9	-25	2118	7	3.6
39) C/C(=N\NC(=O)c1nc2ccccn2c1C)c1ccco1
  -10	.	.	-59	4453	.	.
40) C#CCOc1c(Br)cc(/C=C2/C(=O)ON=C2C)cc1OCC
  -4	11	-1	-17	3544	0	1.4

Screens in order: BJeLR viability	ugtP null kill	Mtb hypoxia inh growth	PrP UTR inh	Autofluor counter	Mtb hypoxia inh	RN4220 kill
41) CC(C)(C)c1ccc(/C=C2\SC(=O)N(CCNC(=O)c3cccc(S(=O)(=O)N4CCOCC4)c3)C2=O)cc1
  4	21	5	47	2643	5	18
42) CCCCCCCCn1c2c(c(=N)c3ccccc31)CCC2
  29	98*	17	-19	4794	21	98*
43) CCOC(=O)C1=C(C)N(CCCC(=O)O)C(=O)NC1c1ccc(Cl)cc1Cl (stereo unspecified)
  -11	6	10	-7	3605	3	4.8
44) Cc1nn(C(=O)CCC(=O)NCc2ccccc2Cl)c2ccccc12
  -4	11	-3	-10	6019	8	5.1
45) COc1ccc(S(=O)(=O)N2CCCCC2)cc1N(C)S(=O)(=O)c1ccccc1
  2	10	0	6	5639	6	8.7
46) Cc1ccc(S(=O)(=O)NCCN(CCNS(=O)(=O)c2ccc(C)cc2)S(C)(=O)=O)cc1
  6	-4	5	-30	9356	0	3.8
47) COC(=O)N/N=C(\C)c1ccc(C)c([N+](=O)[O-])c1
  2	.	.	-3	2972	.	.
48) COc1ccccc1NC(=O)CN(Cc1ccco1)C(=O)c1cncc(Br)c1
  -3	18	4	-7	4219	5	3.0
49) CCCCCCOc1ccc(N2C(=O)CC(N3CCN(C(=O)c4ccco4)CC3)C2=O)cc1 (stereo unspecified)
  -1	-6	10	-6	3268	7	-7.7
50) COc1cccc(NC(=O)CCN2C(=O)C3CC=CCC3C2=O)c1 (stereo unspecified)
  3	12	-7	-33	4510	12	4.4
51) C[C@H](N=C1NS(=O)(=O)c2ccccc21)C(=O)OCc1cc([N+](=O)[O-])cc2c1OCOC2
  -8	8	-1	2	4084	-1	2.6
52) Cc1nnc(NC(=O)CCC(=O)N2CCN(S(=O)(=O)c3cc([N+](=O)[O-])ccc3C)CC2)s1
  .	4	6	-80	3991	1	1.2
53) C=CCOc1cccc(/C=N/NC(=O)CN(c2cc(Cl)ccc2OC)S(=O)(=O)c2ccc(C)c([N+](=O)[O-])c2)c1
  -3	.	.	-15	2415	.	.
54) COc1cc(/C=N\n2cnnc2)ccc1OCC(=O)Nc1ccc(C)cc1
  0	.	.	-17	3078	.	.
55) COc1cc(C2NC(=S)NC(c3ccccc3)=C2C(C)=O)cc(Cl)c1OCC(=O)O (stereo unspecified)
  -9	2	1	-27	23312*	-1	1.3
56) CCN(CC(=O)Nc1ccc(NC(C)=O)cc1)S(=O)(=O)/C=C/c1ccccc1
  .	4	-1	-4	.	8	5.7
57) N#Cc1cnn(-c2ncnc3sc4c(c23)CCCC4)c1N
  0	-4	2	-8	5002	-7	-0.8
58) S=C(Nc1cccc(Cl)c1Cl)N1CCCC1
  .	5	7	-20	6225	8	1.4
59) Cc1cccc(C(=O)N2CCC(Cc3ccccc3)CC2)c1[N+](=O)[O-]
  10	10	16	-19	2020	13	2.0
60) CC(OC(=O)CNC(=O)C12CC3CC(CC(C3)C1)C2)C(=O)Nc1ccc(S(N)(=O)=O)cc1 (stereo unspecified)
  -6	1	-1	-31	4411	10	3.7

Screens in order: BJeLR viability	ugtP null kill	Mtb hypoxia inh growth	PrP UTR inh	Autofluor counter	Mtb hypoxia inh	RN4220 kill
61) Cc1ccc(C(=O)NNC(=O)c2cccc(S(=O)(=O)N3CCN(c4ccccc4)CC3)c2)cc1
  14	6	13	-16	2608	-4	-1.6
62) Cc1occc1C(=O)NN=C/C=C/c1ccccc1[N+](=O)[O-]
  .	1	12	.	.	14	4.2
63) CCOCCCNC(=O)c1oc2ccc(S(=O)(=O)N3CCOCC3)cc2c1C
  15	15	5	-21	3752	11	2.8
64) COC(=O)c1ccc(C=NNC(=O)c2ccc3nc[nH]c3c2)cc1
  .	6	-2	.	.	3	-0.2
65) CCOc1ccc(N(CC(=O)N2CC=C(c3ccccc3)CC2)S(=O)(=O)c2c(C)noc2C)cc1
  3	9	.	-9	5266	.	31
66) CC(Oc1ccccc1Cl)c1nnc(N)s1 (stereo unspecified)
  -4	1	6	-10	3449	-1	-2.3
67) C=CCN1C(=O)c2ccccc2NC1c1ccc(Br)s1 (stereo unspecified)
  -9	0	5	-13	4966	11	2.2
68) CCN(C(=S)Nc1ccccc1F)C1CCCCC1
  -11	12	5	-7	9092	0	7.5
69) O=C(Nc1ncccc1O)c1c(O)c2ccccc2[nH]c1=O
  -1	22	1	-15	4300	-3	4.8
70) COc1cc(/C=N/NC(=O)c2ccncc2)cc(OC)c1OC
  0	.	.	-19	3709	.	.
71) C(=N\Nc1nc2ccccc2[nH]1)/c1c[nH]c2ccccc12
  -3	.	.	-67	2538	.	.
72) O=C1NC(=O)N(C2CCCCC2)C(=O)C1C1c2ccccc2C(=O)N1Cc1ccccc1 (stereo unspecified)
  -11	2	.	-38	2748	.	-0.1
73) CCCc1cc(=O)oc2cc(OCC(=O)NC(Cc3c[nH]c4ccc(O)cc34)C(=O)O)c(Cl)cc12 (stereo unspecified)
  -4	-7	.	-25	5611	.	-0.2
74) CC(=O)c1sc(C(C)(C)C)cc1NC(=O)/C=C/C(=O)O
  -1	4	3	-21	.	2	13
75) CNC(=O)c1c(NC(=O)c2ccc(S(=O)(=O)N3CCCCC3)cc2)sc2c1CCN(C(C)C)C2
  4	1	10	-8	3919	6	2.8

Bioassay records as filed in PubChem.
